Screening data as filed in PubChem BioAssay.
Insulin prom inh = TRM-6 insulin promoter activity inhibition | TRM-6 cells (human fetal islet line), insulin promoter-eGFP reporter, imaging; reporter expression induced with tamoxifen | inhibition, % at 2 µM | 130,000 tested, 0.9% active | AID 1273;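 active = inhibition above the mean plus 3 SD, with well images judged a real hit on visual review, cut at about 60% in these data, passing the limit was not always enough; inconclusive = inhibition over the cutoff but images rejected on review; inactive = inhibition not above the cutoff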
GALR2 agonist = agonists of human galanin receptor 2 (GALR2). O43603. GALR2-expressing cells, agonist activation read-out. 140,000 tested, 0.48% active. activation, %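 (tested at 5 µM)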;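 active = above mean plus 3 SD of all compounds, about 5% in these data, not always enough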;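 also: 0% = vehicle buffer wells and 100% = reference agonist at full effect; tested in CHO reporter cells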
Target sequence (O43603 whole entry, looked up): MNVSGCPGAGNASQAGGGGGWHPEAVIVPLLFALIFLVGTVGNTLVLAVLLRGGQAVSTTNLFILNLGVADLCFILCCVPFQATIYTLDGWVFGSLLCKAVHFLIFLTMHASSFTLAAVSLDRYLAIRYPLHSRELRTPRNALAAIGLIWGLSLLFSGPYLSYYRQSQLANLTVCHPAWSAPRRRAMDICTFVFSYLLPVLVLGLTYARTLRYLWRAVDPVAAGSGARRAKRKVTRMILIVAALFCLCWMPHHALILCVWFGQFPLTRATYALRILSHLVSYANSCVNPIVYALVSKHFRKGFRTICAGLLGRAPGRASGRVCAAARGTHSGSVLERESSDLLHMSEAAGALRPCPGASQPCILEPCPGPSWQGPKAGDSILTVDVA
HSV replic up = increases HSV replication in cells; HSV replication augmentation in cells, fold increase; maximum fold increase; 220,000 tested, 0.005% active; AID 1956;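 active = peak rise of 1.5-fold or more in the series; inconclusive = self-fluorescent or not available for retest; tested in PC3 cells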;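 also: first round at 10 µM; read as green reporter fluorescence; hits show the peak of a series up to 25 µM; 1 = signal of infected wells without compound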
PKD1 kinase inh = blocks activity of human protein kinase D1; Q15139; PKD1 kinase fluorescence polarization assay; inhibition, %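 (about 10 µM by stock and volumes)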; 200,000 tested, 0.056% active; AID 797;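 active = inhibition of 50% or more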;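 also: controls were vehicle for no effect and a reference inhibitor for full effect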
RGS16-Gao HTS = RGS16-Galphao interaction regulator (human). O15492+P09471. bead-based flow cytometry RGS16-Galphao binding, fluorescence; actives lie on both sides. binding response (% of control), % at 10 µM. 220,000 tested, 0.38% active;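 active = below 25% or above 175%, edge rows of some plates excepted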;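 also: Galphao activated by GDP with aluminum fluoride before binding; 100% = wells without compound and 0% = beads without RGS; some results beyond the cut were filed as inactive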
Target sequence (O15492 whole entry, looked up): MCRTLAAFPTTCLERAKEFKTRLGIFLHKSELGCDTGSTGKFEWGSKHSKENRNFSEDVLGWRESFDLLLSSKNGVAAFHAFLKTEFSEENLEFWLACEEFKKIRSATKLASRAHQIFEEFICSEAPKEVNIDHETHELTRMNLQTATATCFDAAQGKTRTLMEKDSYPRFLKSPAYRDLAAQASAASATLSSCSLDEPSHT
Target sequence (P09471 whole entry, looked up): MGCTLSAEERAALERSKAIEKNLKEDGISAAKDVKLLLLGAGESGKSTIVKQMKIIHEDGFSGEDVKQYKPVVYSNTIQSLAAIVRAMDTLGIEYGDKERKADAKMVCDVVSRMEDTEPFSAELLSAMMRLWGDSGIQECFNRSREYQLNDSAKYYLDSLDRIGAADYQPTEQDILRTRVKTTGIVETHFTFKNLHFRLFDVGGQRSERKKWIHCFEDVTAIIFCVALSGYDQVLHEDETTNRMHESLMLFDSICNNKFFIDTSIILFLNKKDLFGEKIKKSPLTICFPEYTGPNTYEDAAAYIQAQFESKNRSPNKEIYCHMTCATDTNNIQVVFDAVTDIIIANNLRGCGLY
Insulin prom inh cell count = further read-out of Insulin prom inh, marked with its call; normalized cell count, %; measured here: cell count, toxicity; reference of the scale not given here;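 cells exposed to compound for 48 h; stained nuclei by imaging scaled within each plate; lower means fewer cells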
HSV replic up primary fold = second read-out of HSV replic up, no call of its own (marks repeat the call); fold increase; compound at 10 µM; measured here: primary screen fold increase 10 uM; tested in PC3 cells;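 GFP signal in the first replicate; 1 = infected wells without compound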
The depositor's hits bear a star; i = inactive; ? = inconclusive; . = no result given.

Every second line gives: Insulin prom inh	Insulin prom inh cell count	GALR2 agonist	HSV replic up	HSV replic up primary fold	PKD1 kinase inh	RGS16-Gao HTS
- O=C(NCCCN1CCOCC1)C(=O)N/N=C/c1ccc(F)cc1
    -13	130	.	i	0.98	0	108
- N=c1oc2c3c4c(cc2cc1C(=O)Nc1ccccc1)CCCN4CCC3
    i	93	0.7	?	.	-45	101
- CC1(C)Cc2c(c(-c3ccccc3Cl)[nH]c(=O)c2C#N)CO1
    56	118	1.2	i	0.99	-4	103
- COc1ccc(CCN2C(=O)C(Oc3ccccc3)C2c2ccc3c(c2)OCO3)cc1 (stereo unspecified)
    -42	84	0.2	i	0.94	-6	104
- CCN1C(=O)/C(=C/C=C2/CCCN2C)OC1=S
    .	.	.	?	.	-5	102
- COc1ccc2oc(-c3ccccc3)c(C(N)=O)c2c1
    -81	90	-1.8	i	0.93	2	102
- COc1cc(/C=C2\NC(=S)N(C)C2=O)ccc1O
    .	.	.	?	.	5	96
- O=C(NCc1ccco1)c1ccc2c(c1)N(Cc1ccc(Cl)cc1)CCS2
    .	.	.	i	0.88	.	110
- Cc1cccc(N2C(S)=C(C#N)C(=O)NC23CCCCC3)c1
    0	95	-0.5	i	0.92	-10	106
- CNC(=S)NNC(=O)CCn1nc(C)c(Br)c1C
    33	137	-1.2	i	0.66	0	102
- CSCCC(=O)N1CCCC(CNC(=O)c2ccccc2Cl)C1 (stereo unspecified)
    -7	83	.	i	1	-1	106
- Cn1nc(C(F)(F)F)c(-c2cccc(C(F)(F)F)c2)c1NC(=O)CSCC(=O)O
    .	.	.	i	0.78	.	101
- CC(=C\c1ccco1)/C=C1/SC(=S)N(CC(=O)O)C1=O
    .	.	.	i	1.1	.	104
- CC(=O)NCCNC(=O)c1ccc(CSc2ccc(Cl)cc2)cc1
    .	.	.	i	0.72	0	100
- O=C(Cn1cc2c(n1)CCCCC2)Nc1ccc(F)cc1F
    .	.	-1.0	i	0.77	-16	105
- CS(=O)(=O)NC1c2cccc3cccc(c23)C1Sc1nncn1/N=C/c1ccco1 (stereo unspecified)
    41	107	0.2	i	1	7	102
- Cc1ccc(NC(=O)CS(=O)CC(=O)NC2CCN(Cc3ccccc3)CC2)c(C)c1 (stereo unspecified)
    53	113	-1.2	i	0.95	-1	101
- O=C1c2ccccc2C(=O)N1CCc1csc(-c2ccccc2)n1
    -14	100	0.0	i	0.85	9	105
- Cc1nn(Cc2c(Cl)cccc2Cl)c(C)c1NC(=O)c1cnn2c(C(F)F)cc(-c3ccccc3)nc12
    .	.	0.3	i	0.69	1	95
- CCOC(=O)c1[nH]c(C)c(C(=O)NC2CCCC2)c1C
    .	.	-1.6	i	1	-4	107
- Cc1c(Cl)cccc1-n1c(SCC(=O)N2CCC(C(=O)O)CC2)nnc1-c1ccncc1
    53	156	.	i	1	4	108
- Cn1c(-c2ccc3c(c2)OCO3)cnc1NCc1ccc(Cl)cc1
    -20	97	-2.9	i	0.67	-3	136
- CCCC(=O)Nc1ccc(S(=O)(=O)Nc2cc(C)nc(C)n2)cc1
    40	42	-1.3	i	0.99	1	102
- O=C(Nc1ccc(S(=O)(=O)N2CCc3ccccc32)cc1)c1ccc2c(c1)OCO2
    -43	97	-1.7	i	0.88	0	99
- COc1ccc(-n2c(C)cc(C(=O)NC3CCCCC3)c2C)cc1
    8	55	-2.0	i	0.67	-4	103
- CCOC(=O)NC(=O)COC(=O)CNC(=O)c1cccc(OC)c1
    .	.	.	i	1	2	105
- c1ccc2nc(-c3ccc4c(c3)OCO4)ccc2c1
    .	.	.	i	0.94	5	102
- CCCOc1ccc(-c2nnn(CC(=O)OCC)n2)cc1
    7	55	-1.1	i	0.84	8	101
- Cc1noc(/C=C/c2cccs2)c1S(=O)(=O)N1CCC(C(=O)NCCCN2CCCC(C)C2)CC1 (stereo unspecified)
    .	.	.	i	1.2	0	104
- CCOC(=O)n1c(=O)oc2ccccc21
    -23	114	-1.9	i	0.93	-1	102
- COc1nc(-c2ccccc2)cc(C(F)(F)F)n1
    25	102	-2.1	i	1.1	-4	97
- Cc1c(C(=O)NCCCN2CCOCC2)oc2ccc(S(=O)(=O)N3CCOCC3)cc12
    .	.	.	i	0.99	-3	99
- Cc1cccc2cc(C(c3nnnn3Cc3ccccc3)N3CCCc4ccccc43)c(=O)[nH]c12 (stereo unspecified)
    30	105	-1.2	i	0.74	0	104
- Cc1occc1C(=O)Nc1cc(C(C)(C)C)on1
    47	96	1.8	i	0.92	-5	104
- Nc1nc2nccc(-c3ccccn3)n2n1
    .	.	.	i	1.1	1	100
- O=C(CCS(=O)(=O)c1cccc2nsnc12)NC1CCCCC1
    11	101	1.1	i	0.88	-7	89
- CC1CC(C)CN(S(=O)(=O)c2ccc(F)c(C(=O)Nc3ccc(Cl)cc3F)c2)C1 (stereo unspecified)
    22	99	-2.2	i	0.91	-3	102
- Cn1c(=O)c2nc(Cl)c(-c3ccccc3)nc2n(C)c1=O
    .	.	0.1	i	0.81	6	100
- COc1ccc(CNC(=O)CSc2nc3nc(C)cc(C)n3n2)cc1
    .	.	-2.2	.	.	-11	96
- Cc1ccccc1C(=O)N[C@H](C(=O)Nc1ccc(Cl)c(Cl)c1)C(C)C
    -9	150	-0.8	i	0.96	7	100
- CCCC(=O)c1cc2cc(Cl)ccc2oc1=O
    .	.	0.4	i	0.92	-2	99
- CN1CCC(NC(=O)c2cccs2)CC1
    .	.	-0.8	i	0.9	0	110
- CCOc1ccc(N2C(=O)CC(N3CCc4ccccc43)C2=O)cc1 (stereo unspecified)
    59	77	-1.8	i	0.85	3	92
- COc1cc(NC(=O)CCCSc2nc(-c3ccco3)cc(C(F)(F)F)n2)cc(OC)c1OC
    -35	106	0.1	i	0.97	-6	104
- CCCCN(CC)CCNC(=O)c1cc2c(=O)[nH]c3ccccc3c2n1C
    .	.	.	i	0.82	-2	102
- Cc1ccc2c(c1)N(CC(=O)N(Cc1ccc3c(c1)OCO3)CC1CCCO1)C(=O)C(C)O2 (stereo unspecified)
    .	.	-0.6	i	1.2	-5	102
- CCOc1ccc(CSCCNC(=S)Nc2ccccc2)cc1
    -22	85	-0.1	i	0.98	-13	114
- CCC(C)c1c(O)nc(SCC(=O)N2CCOCC2)[nH]c1=O (stereo unspecified)
    -14	43	-2.7	i	1	11	100
- Cc1ccccc1-c1nc2ccccc2o1
    -13	162	-1.6	i	0.78	-2	100
- Cc1ccc(NC(=O)c2scc3c2CCCC3)cc1
    10	91	-0.9	i	1.1	0	106
- CCOc1ccccc1NC1c2ccccc2C(=O)N1c1ccc(C)cn1 (stereo unspecified)
    .	.	-1.3	i	0.85	-2	103
- COc1cc(C(=O)N2CCC(NC(=O)C(Cc3ccc(C)cc3)NC(C)=O)CC2)cc(OC)c1OC (stereo unspecified)
    -27	166	0.9	i	0.76	3	107
- CCOc1ccccc1N1CCN(CC(=O)N(CC(C)C)c2c(N)n(CC(C)C)c(=O)[nH]c2=O)CC1
    -10	95	.	i	1	-3	108
- Cc1ccc(NC(=O)C(=O)NC(C)C2COc3ccccc3O2)cc1 (stereo unspecified)
    60	113	-1.4	i	0.93	-1	99
- Cc1nc(SCC(=O)N2CCC(C(N)=O)CC2)n[nH]1
    43	189	-1.9	i	0.95	-6	96
- O=c1cc(O)c2sc3nc(C(F)(F)F)c4c(c3c2[nH]1)CCCCC4
    45	25	.	i	1.1	-3	113
- O=[N+]([O-])c1ccc(C2=Nc3cc(Cl)ccc3OC2)cc1
    -10	62	.	i	0.93	15	100
- O=C(CSc1nc2ccccc2s1)Nc1ncccn1
    16	131	-1.7	i	0.95	-4	99
- O=C(OC(C(=O)NC1CCCCC1)c1ccccc1)c1ccco1 (stereo unspecified)
    -144	65	-2.3	i	0.99	1	91
- Cc1c(C(=O)Nc2ccc3c(c2)OCO3)sc2ncn(CC(=O)N3CC(C)CC(C)C3)c(=O)c12 (stereo unspecified)
    .	.	-1.1	i	0.91	6	26

3 structures from above, sorted by heavy-atom count, low to high.
Every second line gives: Insulin prom inh	Insulin prom inh cell count	GALR2 agonist	HSV replic up	HSV replic up primary fold	PKD1 kinase inh	RGS16-Gao HTS
- Cc1ccccc1-c1nc2ccccc2o1
    -13	162	-1.6	i	0.78	-2	100
- Cc1nc(SCC(=O)N2CCC(C(N)=O)CC2)n[nH]1
    43	189	-1.9	i	0.95	-6	96
- O=c1cc(O)c2sc3nc(C(F)(F)F)c4c(c3c2[nH]1)CCCCC4
    45	25	.	i	1.1	-3	113

Carrying on:
Every second line gives: Insulin prom inh	Insulin prom inh cell count	GALR2 agonist	HSV replic up	HSV replic up primary fold	PKD1 kinase inh	RGS16-Gao HTS
- N#CCCN(C(=O)COC(=O)c1ccc(S(=O)(=O)Nc2ccccc2)cc1)c1ccccc1
    -21	107	0.0	i	0.83	-4	105
- O=C1Nc2c(Br)cc(Br)cc2C1(O)N1CCOCC1 (stereo unspecified)
    -69	73	-1.2	i	1.1	24	98
- CC(=O)N1N=C(c2cccc([N+](=O)[O-])c2)OC1(C)CC(=O)Nc1ccccc1 (stereo unspecified)
    .	.	-0.9	i	1.1	-4	106
- COc1cc(CO)c(Br)cc1OCC(=O)Nc1ccccc1C
    30	98	.	i	0.95	-7	102
- Cc1ccc(-c2c[n+](CC(=O)Nc3ccc(C)cc3C)c3n2CCC3)cc1
    .	.	.	i	1.1	.	100
- CC1Cc2nc(SCC(=O)NCC3CCCO3)n(Cc3ccccc3)c(=O)c2S1 (stereo unspecified)
    29	101	0.4	i	1.1	1	.
- CCC(C)NC(=O)CCn1c(-c2ccc(F)cc2)cc(C(C)=O)c1C (stereo unspecified)
    -19	121	.	i	0.95	-7	103
- O=C(Nc1cccc(S(=O)(=O)N2CCOCC2)c1)c1ccc(N2CCOCC2)c([N+](=O)[O-])c1
    .	.	-1.2	i	0.96	1	106
- COc1ccc(OC)c(NC(=O)CSc2nnc(Cc3cccn3C)n2CCc2ccccc2)c1
    .	.	-0.8	i	0.92	0	108
- CC12C=CC3(CN(Cc4ccccc4)C(=O)C3C1C(=O)NC1CC1)O2 (stereo unspecified)
    .	.	-5.4	i	1.1	-12	97
- COC(=O)c1nn(-c2ccc(OC)cc2)c(=O)cc1Sc1ccc(C)cc1
    41	98	.	i	0.95	-4	110
- Cc1[nH]c(=S)[nH]c(=O)c1Cc1ccccc1
    .	.	-0.9	i	0.86	2	115
- CCOc1ncccc1C(=O)N1CCN(Cc2ccc3c(c2)OCO3)CC1
    -7	150	-0.8	i	1	3	100
- CCOC(=O)c1cnc(-n2[nH]c(C)c(Cc3ccccc3)c2=O)[nH]c1=O
    -7	121	.	i	0.95	2	101
- N#Cc1c(Cl)nc(N/N=C/c2ccccc2)c(Cl)c1Cl
    .	.	-1.4	i	0.82	-3	104
- CCCC(=O)Nc1ccc2c(c1)nc1n2CCN(C2CCCCC2)C1
    7	86	.	i	0.99	4	103
- COc1cc(C2NC(=O)NC(C)=C2C(=O)OCc2ccc(C)cc2)cc(OC)c1O (stereo unspecified)
    .	.	-1.3	i	0.84	7	100
- COc1ccc(OC)c(/C=C/C(=O)NC2=NCCS2)c1
    .	.	.	i	1	7	93
- CCOC(=O)C(C)Oc1ccc(NC(=O)C(Cl)Cl)cc1 (stereo unspecified)
    .	.	.	i	0.83	.	101
- O=C(O)CCc1nnc(SCC(=O)Nc2ccc(Cl)c(C(F)(F)F)c2)[nH]c1=O
    18	104	.	i	0.86	-9	131
- CN(c1cccc(NS(=O)(=O)c2cccs2)c1)S(C)(=O)=O
    -8	82	-4.1	i	0.9	-2	105
- COc1ccc(NC(=O)COC(=O)/C=C/c2ccccc2[N+](=O)[O-])cc1OC
    17	98	-0.5	i	0.91	-5	102
- CC(C)NC(=O)C1CCN(Cc2cnn(-c3ccccc3)c2-n2cccc2)CC1
    4	125	-0.9	i	0.82	-4	103
- NC(=O)CSc1ncnc2c1cnn2Cc1ccccc1
    7	82	-1.6	i	0.86	2	104
- COC(=O)c1cc(=O)nc2sc(-c3ccc(F)cc3)nn12
    .	.	-2.4	i	0.88	-9	81
- N#Cc1c(-c2ccccc2Cl)c2c([nH]c1=O)-c1ccccc1OC2
    .	.	.	i	0.88	.	109
- CN(C)Cc1ccccc1Cc1ccccc1
    -13	108	-0.9	i	1	-6	110
- COc1cccc(Nc2c(F)c(OC)c(F)c(F)c2C(=O)O)c1
    0	120	-1.0	i	0.92	-2	110
- O=C1C(Cc2ccccc2)SC(=Nc2ccccc2)N1c1ccccc1 (stereo unspecified)
    -57	109	-2.1	.	.	10	98

The order is random; any-hit rate near 1.1%.
